# Vaccinia pol inh: inhibitors of vaccinia virus processive DNA synthesis (E9 polymerase); actives 0.94% (n = 46,000); normalized absorbance, % (no concentration beside the values); AID 493162; in vitro processive DNA synthesis, absorbance read-out; hits give low values; some inactives read as strong as hits;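 active = replicate mean up to 90% and picked by the depositor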;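 note: 100% = median of the test wells of a plate; 100 nL library stock went into each well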
# Numbers without * were called inactive. Not all compounds are listed; the hit share may differ from the screen's.
mol | Vaccinia pol inh
C=C(C)C1CC[C@]2(C(=O)O)CC[C@]3(C)[C@H](CC[C@@H]4[C@@]5(C)CC[C@H](O)C(C)(C)[C@@H]5CC[C@]43C)[C@@H]12 (stereo partly drawn) | 102
CN(C)c1nc(C(C)(C)C)cc2c1C(=O)NC2=O | 102
COc1ccc(C2C=C(c3ccccc3)NC(=O)C2C#N)cc1 (stereo not drawn) | 94
COc1ccc(CCn2cnn3c(=O)c4ccccc4nc3c2=O)cc1OC | 101
CC(=O)Nc1cc(C(=O)NCCN2C(C)CCCC2C)ccc1Sc1ccc(C)cc1 (stereo not drawn) | 93
COc1cc(/C=C2\SC(=Nc3ccccc3)N(c3ccccc3)C2=O)cc(OC)c1O | 100
CN1CCC=C(Cc2n[nH]c(=O)c3ccccc23)C1 | 110
Cc1noc(-c2ccccc2)c1NC(=O)N1CCOCC1 | 102
COC(=O)c1cc(S(=O)(=O)/C=C/c2ccccc2)c(Cl)cc1Cl | 100
O=C(NCc1ccncc1)/C(=C/c1ccc(Cl)cc1)c1ccc(F)cc1 | 103
O=C(Nc1ccc(Cl)cc1Cl)C1CC(=O)N(C2CCCCC2)C1 (stereo not drawn) | 93
N#CC1(C#N)C2CCCCC23OC(=N)C1(C#N)C(c1cccnc1)O3 (stereo not drawn) | 100
Cc1ccc(NC(=O)CCn2c(=O)[nH]c3ccsc3c2=O)cc1 | 90
COc1ccc(/C=C2\C(=O)N(C)c3ccccc32)cc1O | 87
O=C(c1cnc2ccccc2n1)N1CCC(O)(c2ccc(Cl)cc2)CC1 | 106
Cc1sc2nc(SCCC(=O)NC3CCCCC3)[nH]c(=O)c2c1C | 88
CN(C)C(=O)COc1ccc2c3c(c(=O)oc2c1)CCC3 | 99
Cc1ccccc1-c1nc(CN2CCC(C(=O)NCc3ccco3)CC2)c(C)o1 | 98
CCCCC1=NN(C(=O)C2CC2)C(O)(C(F)(F)F)C1 (stereo not drawn) | 100
CC(C)C(=O)NC(C)C(c1cccs1)N1CCOCC1 (stereo not drawn) | 100
COCCN1C(=O)c2ccccc2C(C(=O)NC2CCCC2)C1c1c[nH]c2ccccc12 (stereo not drawn) | 109
COc1cc(NC(=O)COc2cc(C)c(Cl)c(C)c2)ccc1NC(=O)c1cc2ccccc2o1 | 100
COc1ccc(N(C(=O)c2ccccc2)S(=O)(=O)c2ccc(Cl)cc2)cc1 | 100
COc1ccc(C)cc1NC1=NCCCS1 | 102
CCN1CCCC1CNC(=O)c1cc2c(s1)-c1ccccc1SC2 (stereo not drawn) | 73*
CCOc1ccc(N(CC)C(=O)COc2cc(=O)n(CC)c3ccccc23)cc1 | 85
COCc1cc(OC(=O)N(C)C)nc2c1c(-c1cccs1)nn2C | 99
COc1ccc(CC(C)(N)C(=O)O)cc1OC (stereo not drawn) | 99
Cc1ccc(C(=O)CCc2nc3ccccc3s2)cc1C | 110
COC(=O)c1scc2c(N3CCC(n4cccc4)CC3)cc(C(F)(F)F)nc12 | 88
C=CCn1c(NC(C)c2cc(Cl)ccc2O)nc2ccccc21 (stereo not drawn) | 102
CN1/C(=C\C(=O)C2CCCCC2)C(C)(C)c2ccccc21 | 95
NC(=O)c1ncc(C(F)(F)F)cc1Cl | 117
CC(O)c1nc2ccccc2n1C(=O)c1ccc(OCc2ccccc2)cc1 (stereo not drawn) | 102
COc1ccc(-c2c(C#N)c(SCC(=O)c3ccccc3)nc3c2C(=O)CC(C)(C)C3)cc1 | 112
COC(=O)c1cc(NC(=O)N2c3ccccc3Sc3ccccc32)cc(C(=O)OC)c1 | 100
Cc1cccc(CC2SC(=Nc3ccc(Br)cc3)NC2=O)c1 (stereo not drawn) | 103
COC(CNC(=O)c1ccc(/C=C2/Sc3ccccc3N(Cc3cccc(C)c3)C2=O)cc1)OC | 100
COc1cccc(C(N)CC(=O)O)c1 (stereo not drawn) | 100
Cc1ccc(C(=O)/C=c2\[nH]c(=O)/c(=C/c3cccnc3)s2)cc1 | 100
O=C(/C=C\Nc1cccc(N/C=C\C(=O)c2ccccc2)c1)c1ccccc1 | 100
CCCSc1nc2cc(C)c(C)cc2[nH]1 | 109
O=C(O)c1ccc(CSc2nnc(COc3ccc(Cl)cc3Cl)o2)cc1 | 99
COc1ccc(-c2n[nH]c(C(F)(F)F)c2-c2cnn(-c3ccccc3)c2)c(O)c1C | 94
C=CCn1c(=S)sc2c(Sc3nnc(-c4ccco4)o3)ncnc21 | 112
CN(CCNC(=O)c1cc2c(=O)n(C)c3ccccc3c2s1)Cc1ccccc1 | 101
COC(=O)c1cc2oc3ccccc3c2n1CC(=O)N(C)c1ccccc1 | 106
O=C(O)CSc1nc2cc(C(F)(F)F)ccc2n1Cc1ccccc1 | 98
O=C(CSc1nc2c(c(=O)n1CCc1ccccc1)SCC2)Nc1nccs1 | 95
CC(/C=C1\SC(N(C)c2ccc(O)cc2)=NC1=O)=C\c1ccccc1 | 99

# (further entries)
mol | Vaccinia pol inh
COC(=O)c1ccc(CSc2nc3ccccc3s2)o1 | 100
CCn1c(C(C)NC(=O)c2ccccc2)nc2ccccc21 (stereo not drawn) | 102
CC1(C)CC2CC(C)(CN2CC(O)COCc2ccccc2F)C1 (stereo not drawn) | 104
O=C(CCCC(=O)Nc1cccc2ccccc12)Nc1cccc2ccccc12 | 99
c1nc(NCc2ccc3c(c2)OCO3)c2nc3n(c2n1)CCCCC3 | 106
c1ccc(-c2csc(-c3ccc4c(c3)OCCO4)n2)cc1 | 100
O=c1[nH]ncc(NCc2ccccc2)c1Cl | 99
COc1ccc(N=Cc2ccccc2OCc2ccccc2)cc1 | 100
O=C(CN1C(=O)COc2ccc(Cl)cc21)N1CCCC1 | 101
C=CCN(c1ccccc1)S(=O)(=O)c1ccc(F)c(C(=O)Nc2ccc(C(C)C)cc2)c1 | 102
Cc1ccc(N2C(=O)CC(Sc3ccccc3C(=O)O)C2=O)c(C)c1 (stereo not drawn) | 98
COc1ccc(CN(CCN(C)C)c2ncccn2)cc1 | 98
CN(C(=O)CSCc1ccco1)c1ccccc1 | 97
CCCCn1c(C(C)NC(=O)c2ccc(OC)c(OC)c2)nc2ccccc21 (stereo not drawn) | 99
CSC(=S)Nc1ccc(-c2nc3ccc(C)cc3s2)cc1 | 83
COC(=O)c1ccc(S(=O)(=O)NCCNc2cccc(C(F)(F)F)n2)n1C | 74
C/S(=N\S(=O)(=O)c1cccc2nsnc12)c1ncc(Cl)cc1C(F)(F)F (stereo not drawn) | 98
COc1ccc(N2C(=O)Cc3ccc(OC)cc3C2=O)cc1 | 104
CCCNC(=O)c1oc2ccc3c(c2c1C)C(=O)CC(C)(C)O3 | 101
O=C(O)c1cc(O)ccc1O | 100
CCC(=O)N1CCN(c2nnc(-c3ccccc3)c3ccccc23)CC1 | 108
CC(C)(C)c1ccc(-c2noc(CSc3n[nH]c(=O)n3-c3cccnc3)n2)cc1 | 98
CC(=O)Nc1nc(-c2cc(Cl)sc2Cl)cs1 | 93
CN(C)[C@@H]1C(=O)C(C(N)=O)=C(O)[C@@]2(O)C(=O)C3=C(O)c4c(O)cccc4[C@@](C)(O)[C@H]3C[C@@H]12 | 99
Cc1cc(Cl)ccc1OCC(=O)Nc1sc2c(c1C#N)CCC2 | 99
O=C(NCCC1=CCCCC1)c1ccc2c(c1)OCO2 | 100
CCC(C)N1CCN(C(=O)C(c2ccccc2)c2ccccc2)CC1 (stereo not drawn) | 98
COc1cc(C(=O)OC(Cc2ccccc2)C(F)(F)F)cc(OC)c1OC (stereo not drawn) | 100
Cc1ccc(SCC(=O)Nc2cc(C)on2)cc1 | 101
CC(=O)Nc1sc2c(c1-c1nsc(=O)o1)CCCC2 | 100
N#Cc1c(C(F)(F)F)cc(-c2ccccc2)nc1SCC(=O)N1CCCCC1 | 100
O=c1c(Cl)c(NCCc2ccccc2)cnn1-c1ccccc1 | 101
O=C1CC(C(=O)Nc2ccccc2)N=C(Nc2nc3ccccc3s2)N1 (stereo not drawn) | 100
Cc1sc2nc(C(=O)Oc3ccc(F)cc3)cc(N)c2c1C | 101
O=C1OC(c2ccccc2)/C(=C(\O)c2ccccc2)C1=O (stereo not drawn) | 95
NC(=O)C1c2ccccc2Oc2ccccc21 | 97
O=C(c1ccccc1)c1ccc(F)cc1 | 96
Cc1ccc(C)n1CCN1CCN(S(=O)(=O)Cc2ccc(Cl)cc2)CC1 | 111
O=C(Oc1ccc(C=Nc2ccc(F)cc2)cc1)c1cccs1 | 100
O=c1oc2ccccc2n1Cc1nnc(-c2ccccc2)o1 | 108
CCCSc1nc2c(c(=O)n1CC)SC(C)C2 (stereo not drawn) | 94
Cc1ccccc1Nc1c(-c2ccc(O)cc2)nc2sccn12 | 105
NC(=O)c1ccsc1NC(=O)c1ccc2c(c1)OCCO2 | 94
N#CC1=C(N)SC(N)=C(C#N)C1Cc1ccccc1 | 96
O=C(CC(c1ccccc1)c1ccccc1)N1CCOCC1 | 99
O=C(OCc1cccs1)C1CC1 | 104
S=c1[nH]nc(-c2cccnc2)n1/N=C/C=C/c1ccco1 | 100
CCCCN(CC)S(=O)(=O)c1ccc(C(=O)Nc2nnc(-c3ccc(Cl)s3)o2)cc1 | 98
CC(=O)NS(=O)(=O)c1ccc(N2C(=O)CC(Sc3nccc(C)n3)C2=O)cc1 (stereo not drawn) | 100
O=C(Nc1ccccc1C(F)(F)F)C1Sc2nnc(-c3ccccc3)n2NC1c1ccc(F)cc1 (stereo not drawn) | 98

# Pulled by structure from above:
mol | Vaccinia pol inh
O=C(OCc1cccs1)C1CC1 | 104
C=CCn1c(=S)sc2c(Sc3nnc(-c4ccco4)o3)ncnc21 | 112

# Next section.
mol | Vaccinia pol inh
COc1ccc(C(=O)N(CCc2ccccc2)Cc2ccccc2)c(OC)n1 | 100
CCc1ccc(NC(=O)c2ccccc2N)cc1 | 104
COc1cccc(C(=O)N2CCN(Cc3ccccc3C(F)(F)F)CC2)c1OC | 103
CN1C(=O)c2ccccc2C(C(=O)NCc2ccco2)C1c1cn(C)c2ccccc12 (stereo not drawn) | 79
COc1ccc(OCCSc2nc3ccccc3o2)cc1 | 97
COc1cc(OC)c(C(=O)N2CCCC2)cc1OC | 100
O=C(NC1CC(O)c2cc3c(cc21)OCO3)C(F)(F)F (stereo not drawn) | 112
Cn1[nH]c(C(F)(F)F)cc1=O | 118
O=C(Oc1ccc2cc(-c3nc4ccccc4s3)c(=O)oc2c1)c1ccco1 | 99
CN(C(=O)c1ccc(Cl)cc1)c1ccc(Cl)cc1C(=O)c1ccccc1 | 107
O=C(OC1CCCC1)c1cccnc1Cl | 94
CC1CC(C)CN(C(=O)CCc2ccccc2)C1 (stereo not drawn) | 89
O=C(Oc1ccc2ccccc2c1)C1c2ccccc2Oc2ccccc21 | 102
CC(=O)Oc1ccc(C2OC(=O)c3ccccc3N2C(C)=O)cc1 (stereo not drawn) | 100
c1ccc(CSc2ccc(-c3cccs3)nn2)cc1 | 103
COC(=O)c1csc(C(=O)OC)c1C | 99
COC(=O)C1=C(C)N(c2ccc(F)cc2)/C(=C/c2ccco2)C1=O | 100
COc1ccc(NC(=O)c2nn(C)c3c2COc2ccccc2-3)cc1 | 95
CSc1ccccc1NC(=O)CSc1nc2ccc(C)cc2[nH]1 | 100
COc1ccc(-c2cc(-c3ccccc3)[nH]c(=S)c2C#N)cc1 | 93
CCCCCCCCCCCCCCCCCCOCC(O)CO (stereo not drawn) | 100
COCCN1C(=O)c2ccccc2C(C(=O)NCc2ccccc2OC)C1c1ccc(F)cc1 (stereo not drawn) | 94
OC(c1n[nH]c(=S)n1-c1ccccc1)C(O)c1n[nH]c(=S)n1-c1ccccc1 (stereo not drawn) | 100
CCOC(=O)N1CCN(C(=O)CCS(=O)(=O)c2ccc(Br)s2)CC1 | 101
Cc1ccc2nc(NC(=O)C(C)(C)C)sc2c1 | 96
CN(C(=O)COc1ccccc1)C1(C)CCS(=O)(=O)C1 (stereo not drawn) | 101
CC(C)(C)c1ccc(O)c(CN2CCN(c3ccccc3)CC2)c1 | 101
COC(=O)c1sccc1Oc1ccc(C(F)(F)F)cc1NC(=O)c1ccccc1OC | 105
Oc1ccc(O)c(Sc2nnnn2-c2ccccc2)c1 | 113
CS(=O)(=O)N(Cc1ccccc1)c1ccc(C(=O)NCCSc2ccccn2)cc1 | 100
Cc1ccc(NC(=O)c2nc[nH]c2C(=O)N2CCCCC2)c(C(=O)c2ccccc2)c1 | 100
Cn1c2c(c3cc(C4CCCCC4)ccc31)CCCCC2=O | 98
Oc1cccc(CC(F)(F)F)c1 | 100
Cn1c(C(C#N)C(=O)c2cncc(Br)c2)nc2ccccc21 (stereo not drawn) | 95
Cc1ccc(S(=O)(=O)c2ccc(Cl)cc2)cc1S(=O)(=O)N1CCCC1 | 100
COc1cc2c(cc1OC)C(c1ccccc1)N(C(=O)S(C)(=O)=O)CC2 (stereo not drawn) | 99
COc1ccc(N2CC(C(=O)Nc3ccccc3)CC2=O)cc1 (stereo not drawn) | 103
O=C(Nc1nc(-c2ccccc2)cs1)c1ccc(S(=O)(=O)N2CCCCC2)cc1 | 99
O=C(COc1ccccc1)Nc1ccc(C(O)(C(F)(F)F)C(F)(F)F)cc1 | 110
O=C(c1c(Cl)cccc1Cl)n1nnc2ccccc21 | 100
O=C(OCC(=O)N1CCCCC1)C(c1ccccc1)c1ccccc1 | 97
CC1CCCC(NC(=O)CCCn2c3ccccc3c3cn[nH]c(=O)c32)C1C (stereo not drawn) | 100

# Exported as labelled records: four of the compounds above.
Oc1cccc(CC(F)(F)F)c1
  Vaccinia pol inh: 100

Cn1c(C(C#N)C(=O)c2cncc(Br)c2)nc2ccccc21 (stereo not drawn)
  Vaccinia pol inh: 95

Cc1ccc(S(=O)(=O)c2ccc(Cl)cc2)cc1S(=O)(=O)N1CCCC1
  Vaccinia pol inh: 100

COc1cc2c(cc1OC)C(c1ccccc1)N(C(=O)S(C)(=O)=O)CC2 (stereo not drawn)
  Vaccinia pol inh: 99

# High-throughput results (PubChem)
